High-throughput results as filed in PubChem.
CHT block: inhibitors of human choline transporter CHT | CHT-expressing cells, membrane potential dye, choline response; stronger effect = lower value | Q9GZV3 | 310,000 tested, 0.86% active | B-score at 10 µM;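 active = B-score over 3 SD under the library average, and starting fluorescence ratio not unusually high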;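 note: choline stimulus applied at its EC90 after an EC20 pre-addition; B-score computed on integrated fluorescence ratio after choline addition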
Target sequence (Q9GZV3 whole entry, looked up): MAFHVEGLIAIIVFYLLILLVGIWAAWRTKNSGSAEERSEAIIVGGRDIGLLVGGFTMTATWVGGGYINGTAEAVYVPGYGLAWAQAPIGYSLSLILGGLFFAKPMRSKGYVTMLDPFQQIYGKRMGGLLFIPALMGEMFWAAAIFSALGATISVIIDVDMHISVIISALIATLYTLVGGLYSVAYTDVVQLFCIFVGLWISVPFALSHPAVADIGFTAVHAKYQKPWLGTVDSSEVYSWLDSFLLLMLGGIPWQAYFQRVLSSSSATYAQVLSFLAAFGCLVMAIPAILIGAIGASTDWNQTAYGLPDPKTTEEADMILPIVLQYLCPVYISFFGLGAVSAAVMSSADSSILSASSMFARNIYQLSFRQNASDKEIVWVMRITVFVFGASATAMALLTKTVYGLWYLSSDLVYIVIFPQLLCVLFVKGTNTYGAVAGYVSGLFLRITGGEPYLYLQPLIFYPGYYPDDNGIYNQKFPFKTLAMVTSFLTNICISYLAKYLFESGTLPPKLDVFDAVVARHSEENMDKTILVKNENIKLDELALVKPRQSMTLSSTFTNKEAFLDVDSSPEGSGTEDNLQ
Calls only; i = inactive. A portion of the library, and most or all hits are left out here.

SMILES	CHT block
N#CCCn1cc(C(=O)Nc2ccccn2)c(-c2ccccc2)n1	i
CCn1c(SCC(=O)N2c3ccccc3CCc3ccccc32)nc2c1c(=O)n(C)c(=O)n2C	i
COc1ccc(C(=O)N2CCN(S(=O)(=O)c3ccc(C)cc3)CC2)cc1S(=O)(=O)N1CCOCC1	i
COc1ccc(OC)c(N(C(=O)c2ccco2)C(C(=O)NC2CCCC2)c2ccc(N3CCOCC3)cc2)c1 (stereo not given)	i
COc1ccc(C(=O)/C=C/Nc2cccc(O)c2)cc1	i
C=CCNC(=S)N1CCC(C(=O)c2ccc(F)cc2)CC1	i
CC(C)c1ccccc1NC(=O)c1ccc(CN(c2ccccc2)S(=O)(=O)c2ccccc2)cc1	i
COCC(=O)Nc1nnc(CCc2ccccc2)s1	i
C=CCNC(=O)C1CCN(c2ccc(S(=O)(=O)N3CCOCC3)cc2[N+](=O)[O-])CC1	i
CSc1ccccc1C(=O)NC(C)c1ccc(-n2ccnc2)cc1 (stereo not given)	i
Cc1csc(NC(=O)c2ccc3c(c2)OCO3)n1	i
CCNC(=O)Cn1c(=O)c(=O)n(Cc2ccccc2)c2ccc(Cl)cc21	i
CCCCNC(=O)CN(c1cc(C(F)(F)F)ccc1Cl)S(C)(=O)=O	i
CN(C1CCCCC1)S(=O)(=O)c1ccc(S(=O)(=O)N2CCN(C(=O)c3ccccc3F)CC2)cc1	i
CCOC(=O)Cc1csc(NC(=O)C(CC(C)C)NC(=O)C2CCCCC2)n1 (stereo not given)	i
COc1ccc([N+](=O)[O-])cc1NC(=O)CC(C)c1ccccc1 (stereo not given)	i
Cc1nc(N)[nH]c(=O)c1Oc1cccc(C(F)(F)F)c1	i
O=C(O)CCNc1nc(C(F)(F)F)nc2ccccc12	i
CCOC(=O)Cn1nc(-c2ccccc2)c(-c2ccccc2)nc1=O	i
CCn1c(NC(=O)C(C)C)c(-c2cccs2)c(=O)c2ccccc21	i
c1cnn(-c2nc(N3CCOCC3)nc(N3CCOCC3)n2)c1	i
CCC(=O)N1CCc2cc(Br)cc(S(=O)(=O)NCC3CCCO3)c21 (stereo not given)	i
CC(C)(C)NC(=O)NC(=O)COC(=O)c1ccc(OC(F)F)cc1	i
CCc1cc(Cn2nc(-c3ccccc3)cc2C(=O)O)on1	i
COc1ccc(-c2nc3ccccc3c(=O)n2CCOc2c(C)cccc2C)cc1	i

Exported with values ahead of the structure: 18 of the compounds above.
CHT block	structure
i	COCC(=O)Nc1nnc(CCc2ccccc2)s1
i	C=CCNC(=O)C1CCN(c2ccc(S(=O)(=O)N3CCOCC3)cc2[N+](=O)[O-])CC1
i	CSc1ccccc1C(=O)NC(C)c1ccc(-n2ccnc2)cc1 (stereo not given)
i	Cc1csc(NC(=O)c2ccc3c(c2)OCO3)n1
i	CCNC(=O)Cn1c(=O)c(=O)n(Cc2ccccc2)c2ccc(Cl)cc21
i	CCCCNC(=O)CN(c1cc(C(F)(F)F)ccc1Cl)S(C)(=O)=O
i	CN(C1CCCCC1)S(=O)(=O)c1ccc(S(=O)(=O)N2CCN(C(=O)c3ccccc3F)CC2)cc1
i	CCOC(=O)Cc1csc(NC(=O)C(CC(C)C)NC(=O)C2CCCCC2)n1 (stereo not given)
i	COc1ccc([N+](=O)[O-])cc1NC(=O)CC(C)c1ccccc1 (stereo not given)
i	Cc1nc(N)[nH]c(=O)c1Oc1cccc(C(F)(F)F)c1
i	O=C(O)CCNc1nc(C(F)(F)F)nc2ccccc12
i	CCOC(=O)Cn1nc(-c2ccccc2)c(-c2ccccc2)nc1=O
i	CCn1c(NC(=O)C(C)C)c(-c2cccs2)c(=O)c2ccccc21
i	c1cnn(-c2nc(N3CCOCC3)nc(N3CCOCC3)n2)c1
i	CCC(=O)N1CCc2cc(Br)cc(S(=O)(=O)NCC3CCCO3)c21 (stereo not given)
i	CC(C)(C)NC(=O)NC(=O)COC(=O)c1ccc(OC(F)F)cc1
i	CCc1cc(Cn2nc(-c3ccccc3)cc2C(=O)O)on1
i	COc1ccc(-c2nc3ccccc3c(=O)n2CCOc2c(C)cccc2C)cc1

Carrying on.
SMILES	CHT block
CNC(=O)/C(C#N)=C/c1c(N(Cc2ccccc2)Cc2ccccc2)nc2ccccn2c1=O	i
O=C1CCCN1CN(C(=O)c1ccc2c(c1)OCO2)c1cccc(Cl)c1	i
O=C(c1ccccc1F)N1CCN(C(=O)C2CC2)CC1	i
C/C(=N/N=C1/NC(=O)CC(C(=O)Nc2ccccc2)S1)c1cccs1 (stereo not given)	i
CCc1cccc(CC)c1NC(=S)N(CCN(C)C)C(C)c1cccnc1 (stereo not given)	i
CCN(c1ccccc1)S(=O)(=O)c1nnc(NC(=O)c2ccco2)s1	i
Cc1nn(CC(=O)NC(=O)NC2CCCCC2C)c(=O)c(C#N)c1C (stereo not given)	i
O=C(O)CC1S/C(=N/N=C/c2ccccn2)NC1=O (stereo not given)	i
S=C(Nc1ccccc1)N1CCn2c1nc1ccccc12	i
CCOC(=O)C1CCCCN1C(=O)CCc1c(C)nc2ncnn2c1C (stereo not given)	i
Cc1ccc(C)c(/C=C2\N=C(c3ccccc3F)OC2=O)c1	i
COc1cccc(CNn2c(-c3cccc(C)c3)nc3ccccc3c2=O)c1	i
Cc1cccc(Oc2ccc(S(=O)(=O)N3CCCCC3)cc2N)c1	i
O=C(Cn1cc(C(=O)C2CC2)c2ccccc21)NCc1ccccc1	i
CC(C)c1ccc(NC2CCCN(C(=O)c3cccc(N4CCNC4=O)c3)C2)cc1 (stereo not given)	i
COc1ccc(N2CCN(S(=O)(=O)c3ccc(OC)cc3)CC2)cc1	i
Cc1coc2c(C)c3oc(=O)c4c(c3cc12)CCCC4	i
COc1ccc(C)cc1NC(=O)CCNS(=O)(=O)c1cccc2nonc12	i
COc1ccc(NC2CS(=O)(=O)CC2OC(=O)c2ccc(F)cc2)cc1 (stereo not given)	i
Cc1cc(C(=O)N/N=C/c2cccc(OC(=O)c3ccco3)c2)n[nH]1	i
Cc1nnc(SCC(=O)NCc2cccs2)[nH]c1=O	i
Cc1ccc(-n2nc(N)c3c(=O)oc(N(C)C)nc32)cc1	i
CCc1sc(C(=O)Nc2ncccc2C)cc1C	i
CCOC(=O)[C@@H]1[C@H]2COc3ccc(Br)cc3[C@H]2N2C(=O)N(c3ccc(C)cc3)C(=O)[C@]12C	i
COc1ccc(OCC(=O)N/N=C(\C)c2cc3ccccc3o2)cc1	i
(further entries)
SMILES	CHT block
O=C([C@@H]1CC=C[C@@H]2CCN(C3CCCCC3)C(=O)[C@@H]21)N1CCN(c2ccccc2)CC1	i
CC[C@H](C)[C@H](NC(N)=O)C(=O)Nc1ccc(OC)c(Cl)c1	i
CCCc1ccc(OCC(=O)Nc2cc(S(=O)(=O)CC)ccc2O)cc1	i
Cc1nn(Cc2ccccc2Cl)c(C)c1NC(=O)CSc1n[nH]c(C)c1[N+](=O)[O-]	i
COc1ccccc1-c1cc(-c2ccccc2)nc(SC(C(N)=O)c2ccccc2)c1C#N (stereo not given)	i
Cc1cc(C(=O)OCC(=O)Nc2cc(S(=O)(=O)N(C)C)ccc2Cl)c2ccccc2n1	i
O=C1CC(Sc2ncn[nH]2)C(=O)N1c1ccccc1 (stereo not given)	i
O=C(c1cc2c(=O)n3ccccc3nc2s1)N1CCN(c2cccc(Cl)c2)CC1	i
O=C(NCc1ccncc1)C1CCN(C(=O)c2cccc(Cl)c2)CC1	i
Cc1ccc2c(c1)-c1c(cnn1CC(=O)NC(C)CCc1ccco1)CO2 (stereo not given)	i
Cc1noc(NS(=O)(=O)c2ccc(NC(=O)C(C)(C)C)cc2)c1C	i
CCn1c(SCc2cccnc2)nc2c1c(=O)n(C)c(=O)n2C	i
CCC(=O)OCc1cc(=O)oc2ccc3ccccc3c12	i
CCc1ccc(NC(=O)C2CCCN2S(=O)(=O)c2ccc3c(c2)n(C)c(=O)c(=O)n3C)cc1 (stereo not given)	i
CC(C)C(=O)NC(c1ccco1)c1c(O)ccc2ccccc12 (stereo not given)	i
Cc1cc(C)n2nc(SCC(=O)N3CCc4ccccc43)nc2n1	i
CSCCC(NS(=O)(=O)c1ccccc1F)C(=O)NCCCn1nc(C)cc1C (stereo not given)	i
CCN(CC(=O)Nc1cccc(OC)c1)CC(=O)Nc1ccc(C)cc1Cl	i
C/C(=N/NC(=O)CNc1ccc(Cl)cc1C)c1ccc(C)cc1	i
Cc1cc(C(F)(F)F)c2c(C)nn(-c3ccccc3)c2n1	i
COCCn1c(C)cc(C(=O)CSc2nncn2-c2ccccc2)c1C	i
CCn1cc(CN2CCN(CCc3ccccc3)C(CCO)C2)c(C)n1 (stereo not given)	i
CC1(C)CC(=O)c2c(oc3ccc(NS(=O)(=O)c4ccc(C(=O)O)cc4)cc23)C1	i
O=C(NCc1n[nH]c(=S)n1-c1ccc(Cl)c(Cl)c1)c1cccs1	i
O=C(NCC1CCC(C(=O)O)CC1)OCc1ccccc1 (stereo not given)	i
Additional entries follow.
SMILES	CHT block
Cc1cccc(OCCCC(=O)Nc2ccc(Br)cc2)c1	i
CCOC(=O)C1(CCCc2ccccc2)CCN(C(=O)C2CCCN(C(N)=O)C2)CC1 (stereo not given)	i
CNC(=O)CCC(=O)Nc1ccc(C)cc1	i
O=S(=O)(NCc1ccccc1)NCc1ccccc1	i
Cc1c(NS(=O)(=O)c2ccccc2)cc(Cl)c(O)c1C	i
CCOC(=O)N1CCN(c2c(NCc3ccccc3Cl)c(=O)c2=O)CC1	i
C=C1c2cc(OC)ccc2NC(=O)N1CC	i
Cc1ccc(CNC(=O)C(C)C2Sc3ccccc3NC2=O)cc1 (stereo not given)	i
O=[N+]([O-])c1ccccc1S(=O)(=O)Nc1ncccn1	i
C/C(N)=C(/C#N)C(=O)CSc1nc2cc(Cl)ccc2s1	i
Cc1nn(Cc2ccccc2)c(C)c1/C=N/NC(=O)CNc1cccc(C(F)(F)F)c1	i
CC(C)C1Cc2nc(Cl)c(C#N)cc2CO1 (stereo not given)	i
COc1ccc(/C=C2\CN(Cc3ccccc3)C/C(=C\c3ccc(OC)cc3OC)C2=O)c(OC)c1	i
O=C(CSc1nncs1)Nc1ccc2c(c1)OCCO2	i
CC(C)NC(=O)N1CCCN(c2nc3ccc(Cl)cc3s2)CC1	i
Cc1c(Cl)c([N+](=O)[O-])nn1CCCC(=O)Nc1cccc(Cl)c1Cl	i
O=CNCc1nc2ccccc2n1CCCc1ccccc1	i
O=C(C1CCCO1)N(c1ccc(F)cc1)C1C=CS(=O)(=O)C1 (stereo not given)	i
O=c1c2ccccc2oc2ccc(NCCCn3ccnc3)cc12	i
Cc1nc(NC(=O)CSC2=NCCS2)sc1C(=O)N(C)C	i
Cn1c(=O)c([N+](=O)[O-])c(NCC2CCCO2)c2ccccc21 (stereo not given)	i
O=C(NC1CCCCC1)N1CCC(n2cnc3ccccc32)CC1	i
Cn1c(SCC(=O)c2ccc(F)cc2)ncc(C(=O)Nc2ccccc2)c1=O	i
Cc1cc(NCc2ccco2)nc(N2CCC(C(=O)NC3CCCCC3)CC2)n1	i
CCOC(=O)c1sc(SC)c(C(C)=O)c1C	i
Other results:
SMILES	CHT block
CC(C(=O)NCC1CCCO1)n1cc([N+](=O)[O-])cn1 (stereo not given)	i
Cc1nn(CC(=O)N2CCOCC2)c(C)c1[N+](=O)[O-]	i
CCOc1ccc(N)cc1OC	i
CCc1ccccc1NC(=O)CN(C)C(=O)COc1ccc(C)nc1[N+](=O)[O-]	i
O=C(NCc1cccs1)c1cc2c(s1)CCCC2	i
CCc1ccc(-c2cc(C(=O)N/N=C/c3ccccn3)[nH]n2)cc1	i
CCc1[nH]nc2c1C1(CCN(C(=O)c3ccccc3)CC1)C(C#N)=C(N)O2	i
COc1ccc(NC(=O)c2cc(C)no2)cc1	i
COc1ccc(OC2CCN(C(=O)Nc3ccc(C)cc3)CC2)cc1	i
NS(=O)(=O)c1ccc(NC(=O)COC(=O)c2cccc(S(=O)(=O)N3CCCC3)c2)cc1	i
Cc1cc2nc(-c3ccc(NC(=O)c4cccnc4)cc3)oc2cc1C	i
NCCCC(N)(C(=O)O)C(F)F (stereo not given)	i
CCOC(=O)N1CCN(Cc2nc3ccc([N+](=O)[O-])cc3c(=O)n2-c2cccc(OC)c2)CC1	i
COc1cc(NC(=S)NC(=O)c2ccc(F)cc2)ccc1NC(=O)c1ccco1	i
COc1cc(/C=C2\C(=O)ON=C2c2ccccc2)cc(OC)c1OC	i
Nc1nc(SCC(=O)Nc2cc(C(F)(F)F)ccc2N2CCOCC2)n[nH]1	i
CCCCn1c(N)c(N(CC)C(=O)c2ccc(N(C)S(=O)(=O)c3ccc(C)cc3)cc2)c(=O)[nH]c1=O	i
Cc1cc(C)cc(CC2CC(=O)N(c3cc(C)ccc3C)C2=O)c1 (stereo not given)	i
CCc1cc(=O)oc2c(C)c(OCC(=O)N3CCCc4ccccc43)ccc12	i
Nc1nc(CN2CCN(c3ccccc3)CC2)nc(N2CCCc3ccccc32)n1	i
COc1ccc(-c2csc3nc[nH]c(=O)c23)cc1	i
O=C(Nc1ccc(F)cc1)N1CCN(c2ncccn2)CC1	i
COc1cc2c(c(OC)c1CC=C(C)C)C[C@H](c1ccc(O)cc1O)CO2	i
CCCN1CCC(NC(=O)Nc2ccccc2C(=O)OC)CC1	i
CCCCCOCC1CC(C/C(C)=N/NC(N)=O)(C(=O)OCC)C(=O)O1 (stereo not given)	i
The listing continues:
SMILES	CHT block
CCOC(=O)c1oc2ccccc2c1NC(=O)Cc1cccs1	i
CCC(C)NC(=O)C1CC(=O)N(CCc2ccc(F)cc2)C1 (stereo not given)	i
NC(=O)C1CCN(C(=O)c2ccc3c(=O)n(Cc4ccco4)c(SCC(=O)c4ccccc4)nc3c2)CC1	i
Cc1[nH]c2ccc(F)cc2c1CCN(Cc1cccnc1)C(=S)NC(C)(C)C	i
COc1ccc(OC)c(-n2c(=S)[nH]c3cc(C(=O)N4CCN(c5ccccc5)CC4)ccc3c2=O)c1	i
CCCCOC(=O)Nc1ccc(C(C)C)cc1	i
O=C(NCCc1ccccc1)c1ccc2nccnc2c1	i
COc1ccc(-c2nn(C)c(=O)c3ccccc23)cc1NS(C)(=O)=O	i
CN(C)C(=O)CSc1nc2ccc(C(=O)c3ccccc3)cc2[nH]1	i
CN(Cc1ccccc1)C(=O)c1ccc(COc2ccccc2)cc1	i
COCCC(=O)N1CCC(Oc2ccc(C(=O)NCc3ncc(C)[nH]3)cc2)CC1	i
COc1cc(NC(=S)Nc2ccc(S(=O)(=O)N3CCOCC3)cc2)cc(OC)c1OC	i
